CDC25B-CDK2 inh = human CDC25B-CDK2/CyclinA binding inhibition. P30305+P24941. HTRF CDC25B-CDK2/CyclinA binding, anti-His/anti-Flag; active compounds read high. z-score (no concentration beside the values). 94,000 tested, 0.72% active;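 note: score is relative to mean and SD of negative controls; strong numbers were not always called active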
HIV TAR-Tat = HIV-1 TAR-Tat binding disruption | HIV-1 TAR RNA, Tat peptide displacement FRET; active compounds read high | z-score (test concentration not listed) | 100,000 tested, 0.6% active;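 note: score is relative to mean and SD of negative controls; some compounds called inactive have numbers as strong as hits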
The depositor's hits bear a star; . = no result given.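 Rule for the calls: active = z-score from 3 up in half or more of its runs; inactive = the rest.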

Values run as follows: CDC25B-CDK2 inh	HIV TAR-Tat
COc1ccc(-n2c(C)nc3c(cnn3-c3ccc(Cl)cc3)c2=O)cc1
 : -0.7	.
Cc1ccc(-n2ncc3c(NC(C)C)ncnc32)cc1
 : .	1.8
Cc1[nH]n(-c2nc3ccccc3[nH]2)c(=O)c1C1OC(=O)c2ccccc21 (stereo not drawn)
 : -2.7	0.8
CCCCN1C(=O)C(O)(CC(=O)c2ccc(CC)cc2)c2cc(Br)ccc21 (stereo not drawn)
 : 1.5	.
COC(=O)c1cc(NC(=O)/C=C/c2ccc(OC)c(OC)c2Cl)ccc1N1CCOCC1
 : -0.67	.
CCN1CCN(C(=O)c2sc3nc4n(c(=O)c3c2C)CCC4)CC1
 : .	1.1
O=C(COC(=O)c1cc(Cl)ccc1O)c1ccc(-c2ccccc2)cc1
 : 0.22	0.63
N#Cc1ncoc1-c1ccc(Cl)cc1
 : -1.6	.
COc1cc2[nH]c(C)cc(=O)c2cc1OC
 : -0.32	1.3
Nc1ccc(-c2nnc(-c3ccccc3)o2)cc1
 : -1.2	2.1
CC(C)C(=O)Nc1c(C(=O)c2ccc(Br)cc2)oc2ccccc12
 : -2.1	-0.15
CCN(CC)c1nc(N)c([N+](=O)[O-])c(Nc2ccc(C)c(C)c2)n1
 : .	-0.53
COc1ccc2c(c1)CC/C(=C\c1ccc(C)o1)C2=O
 : 0.63	.
CCSC1=C(C#N)C(=O)NC(c2ccc(O)cc2)S1 (stereo not drawn)
 : -1.7	0.63
CC(=O)N1N=C(c2ccc(Br)cc2)OC1c1ccc(F)cc1 (stereo not drawn)
 : 1.2	0.5
O=C(CCc1nc2sc3c(c2c(=O)[nH]1)CCCCC3)Nc1ccc(F)cc1
 : .	1.6
CCOc1ccc(N(C)S(=O)(=O)c2cc(-c3cc(C)no3)ccc2C(C)C)cc1
 : .	1.7
COc1cc(OC)cc(-n2c(=O)c3sccc3n(CC(=O)N(C)C3CCCCC3)c2=O)c1
 : 0.62	.
CC(C)(C)c1ccc(S(=O)(=O)c2n[nH]n3c2nc(=O)c2ccccc23)cc1
 : 0.45	-0.33
CCOc1ccccc1-n1c(N)c(C(=O)OC)sc1=S
 : .	2.3

(further entries)
Values run as follows: CDC25B-CDK2 inh	HIV TAR-Tat
CCCCCOC(=O)C1=C(C)Nc2ncnn2C1c1ccccc1Cl (stereo not drawn)
 : -1.8	0.8
CCc1nnc(SCC(=O)N(C)c2ccccc2)c2cc3occc3n12
 : .	1.2
O=C(Cn1c(=O)n(-c2ccccc2)c(=O)c2sccc21)NCc1ccco1
 : -0.48	.
Cc1noc2ncnc(N3CCCC(C(=O)N4CCc5ccccc5C4)C3)c12 (stereo not drawn)
 : .	1.6
O=C(CO)c1ccc(Cl)cc1
 : -1.2	.
O=C(CCc1ccc(-n2cnc3cccnc32)cc1)N1CCc2ccccc21
 : .	-4.4
COC(=O)c1c(N2C(=O)C3ON(c4ccccc4)C(c4ccccc4)C3C2=O)sc(C)c1C (stereo not drawn)
 : -1.7	.
Cc1ccc(C)c(NC(=O)N2CCn3cccc3C2C(C)C)c1 (stereo not drawn)
 : .	-0.23
COC(=O)c1c(C)noc1-c1ccc(C(F)(F)F)cc1
 : 0.36	.
O=C(CCc1nnc2ccc(N3CCCCC3)nn12)Nc1ccc(F)c(F)c1
 : .	1.2
CCCOC(=O)CSC1=C(C#N)C(c2ccc(C)cc2)CC(=O)N1 (stereo not drawn)
 : -1.4	-0.13
CCc1nn(CC(=O)NCCCN2CCN(C)CC2)c(=O)c2cc3sc(C)cc3n12
 : -1.1	1.1
CCOC(=O)C1C2C=CC3(CN(Cc4ccccc4)C(=O)C13)O2 (stereo not drawn)
 : 1.5	0.4
O=C(Oc1ccc(NC2=NS(=O)(=O)c3ccccc32)cc1)c1cccs1
 : 0.94	1.9
O=C(CCS(=O)(=O)c1ccccc1)N1CCOCC1
 : -0.34	.
N#Cc1nc(COc2ccc(F)cc2)oc1N1CCOCC1
 : 0.99	0.7
O=C(c1coc(=O)c2ccccc12)N1CCN(c2ccccn2)CC1
 : 0.01	.
O=C1c2[nH]nc(-c3ccccc3O)c2C(c2cccc(Br)c2)N1CC1CCCO1 (stereo not drawn)
 : 0.92	-0.12
O=C(CCCn1c2ccccc2c2cn[nH]c(=O)c21)NC1CCCC1
 : -0.91	-2.5
O=C(Nc1ccccc1)c1cc(-c2ccc(Cl)cc2)oc1C(F)(F)F
 : 0.1	.

Additional compounds follow.
Values run as follows: CDC25B-CDK2 inh	HIV TAR-Tat
Fc1ccc(C2=NNC3=NCCN3C2)cc1F
 : -1.6	.
Cc1ccc(C2C(c3ccc(S(=O)(=O)N(C)C)cc3)=C(O)C(=O)N2CCCN2CCOCC2)cc1 (stereo not drawn)
 : -0.51	0.91
CC(C)c1ccc(-c2c(Nc3ccc(F)cc3)c(=O)c2=O)cc1
 : .	2.9
Cc1cccc(-c2nc(C)c(CCNS(=O)(=O)c3ccc4ccccc4c3)s2)c1
 : .	2.5
CCCSc1nc2c3c(sc2c(=O)[nH]1)CC(C)(CC)OC3 (stereo not drawn)
 : -2.1	1.3
COc1cccc(NS(=O)(=O)c2cc3c4c(c2)CC(=O)N4CCC3)c1
 : .	1.5
COc1ccc(NC(=O)NC2COc3ccccc3C2)cc1 (stereo not drawn)
 : .	0.53
COc1ccc(OC)c(Nc2c(-c3ccc(Cl)cc3)c(=O)c2=O)c1
 : .	0.03
Cc1onc(-c2ccccc2Cl)c1NC(=O)NNC(=O)c1c(-c2ccccc2)noc1C
 : 0.26	.
COc1ccc2c(c1)CCc1c-2n[nH]c1C(=O)N1CCC(C(N)=O)CC1
 : .	0.26
Nc1ccc(-c2nc3ccccc3o2)c(O)c1
 : 0.35	-2.6
O=C1C2N=NN(Cc3ccc(F)cc3)C2C(=O)N1c1ccc(F)c(F)c1 (stereo not drawn)
 : -1.1	-1.6
O=C(COCc1cc(-c2cccs2)on1)Nc1ccc(F)cc1
 : .	0.5
O=C(O)CS(=O)(=O)CC(=O)O
 : -1.3	1
COC(=O)c1c(NC(=O)c2ccc(C)cc2)csc1C
 : -0.44	.
CCc1ccc(OCC(=O)NC(NC(=S)Nc2ccc(Cl)cc2)C(Cl)(Cl)Cl)cc1 (stereo not drawn)
 : -0.01	.
c1ccc(C(c2ccccc2)N2CCN(c3nn4nnnc4c4ccccc34)CC2)cc1
 : -6.8	0.42
CCCc1sc(NC(=O)c2ccc(F)cc2)nc1-c1ccc(C)c(C)c1
 : -4.1	.
CC(C)Sc1sc(C(=O)O)c(-c2ccc(Cl)cc2)c1C#N
 : -1.3	.
CCOc1ccc2nc(NC(=O)CSc3nc4ncccc4o3)sc2c1
 : .	2.5

5 compounds from above, ordered by number of heavy atoms, low to high:
Values run as follows: CDC25B-CDK2 inh	HIV TAR-Tat
O=C(O)CS(=O)(=O)CC(=O)O
 : -1.3	1
CCCSc1nc2c3c(sc2c(=O)[nH]1)CC(C)(CC)OC3 (stereo not drawn)
 : -2.1	1.3
O=C(COCc1cc(-c2cccs2)on1)Nc1ccc(F)cc1
 : .	0.5
CCOc1ccc2nc(NC(=O)CSc3nc4ncccc4o3)sc2c1
 : .	2.5
Cc1ccc(C2C(c3ccc(S(=O)(=O)N(C)C)cc3)=C(O)C(=O)N2CCCN2CCOCC2)cc1 (stereo not drawn)
 : -0.51	0.91

Carrying on.
Values run as follows: CDC25B-CDK2 inh	HIV TAR-Tat
Cc1cc(C)n2nc(SCC(=O)Nc3ccc(O)cc3)nc2n1
 : -1.8	-0.13
CCOC(=O)C1=C(C)NC2=C(C(=O)CC(C)(C)C2)C1c1ccc(C)s1 (stereo not drawn)
 : -1.1	0.56
CCC(Sc1nc(C)cc(C)n1)C(=O)Nc1sc2c(c1C(N)=O)CCCC2 (stereo not drawn)
 : -1.5	.
CCN1CCN(c2nc(NC(C)C)c3cnn(C)c3n2)CC1
 : .	1.6
CN(C1CCCCC1)S(=O)(=O)c1ccc2c(c1)c(=O)c(C(=O)NC1CCCCCCC1)cn2C
 : -1.8	.
CCCc1nc2ccccc2n1Cc1ccccc1F
 : -3.1	1.4
O=C(O)/C=C/C(=O)Nc1ccc(Cc2ccc(NC(=O)/C=C/C(=O)O)cc2)cc1
 : -0.93	.
CCCn1c2ccccc2c2cnn(CC(=O)N(Cc3ccco3)C3CCCC3)c(=O)c21
 : .	1.1
CCN(CC)CCNC(=O)c1sc2nc(C)cc(C)c2c1-n1cccc1
 : -2.1	0.66
O=C(NCc1ccc2c(c1)OCO2)c1c(O)nc2ccccn2c1=O
 : -0.84	-0.72
CC(=O)Nc1ccccc1OCC(O)CS(=O)(=O)c1ccc(C(F)(F)F)cn1 (stereo not drawn)
 : -1.3	.
O=C(c1cc(-c2ccc(Br)cc2)n[nH]1)N1CCN(C2CCCCC2)CC1
 : .	1.3
Cc1ccc(S(=O)(=O)c2nc(S(=O)(=O)c3ccccc3)sc2N2CCN(C)CC2)cc1
 : -1.2	-0.82
COCCNC(=O)Cn1c(=O)n(-c2ccc(F)cc2F)c(=O)c2sccc21
 : -0.25	.
O=S(=O)(N1CCOCC1)n1cnc2ccccc21
 : 0.36	.
S=C(NCCc1ccccn1)NC1CC2CCC1C2 (stereo not drawn)
 : -0.66	.
Fc1ccc(CN2CCc3nc(N4CCCC4)ncc3C2)c(F)c1
 : .	1.4
CCOC(=O)c1c(NC(=O)c2cc(CC)on2)sc(C)c1C
 : -4.9	1.1
COc1cc(C)ccc1OCCSc1nnc(-c2ccc3c(c2)OCO3)o1
 : 1.1	1.4
COC(=O)CCC1CCC(CCC(=O)OC)C1=O (stereo not drawn)
 : -1.5	.

The last 4 compounds of the section above come first, to join the parts:
Values run as follows: CDC25B-CDK2 inh	HIV TAR-Tat
Fc1ccc(CN2CCc3nc(N4CCCC4)ncc3C2)c(F)c1
 : .	1.4
CCOC(=O)c1c(NC(=O)c2cc(CC)on2)sc(C)c1C
 : -4.9	1.1
COc1cc(C)ccc1OCCSc1nnc(-c2ccc3c(c2)OCO3)o1
 : 1.1	1.4
COC(=O)CCC1CCC(CCC(=O)OC)C1=O (stereo not drawn)
 : -1.5	.
O=C(Nc1ccc(Cl)cc1)NC1CC(=O)N(C2CCCC2)C1 (stereo not drawn)
 : -0.59	0.87
CCOC(=O)c1sc(NC(=O)c2sc(C)nc2C)c(C(=O)OCC)c1C
 : -1.3	2.5
O=C(CCSCc1cnn(-c2ccccc2)c1-n1cccc1)NCC1CCCO1 (stereo not drawn)
 : -1.4	-1
Cc1nn(Cc2noc(-c3cc4ccccc4[nH]3)n2)c(C)c1S(=O)(=O)N1CCCC1
 : .	0.1
CCC(=O)N1CCN(C(=O)c2ccccc2)CC1
 : -1.3	.
COc1ccc(C2C(C(=O)OC3CCCCC3)=C(C)NC3=C2C(=O)CCC3)cc1OC (stereo not drawn)
 : -1.2	1.3
CCOC(=O)c1cnc(SC)nc1NC(=O)Nc1ccc(F)c(Cl)c1
 : .	1.9
COCCCN1C(=O)C(=O)/C(=C(/O)c2ccccc2)C1c1ccccc1OC (stereo not drawn)
 : 2	-1.2
Cc1nc(Sc2ncn[nH]2)c2sc(=S)n(-c3ccccc3)c2n1
 : -0.74	.
CC1(C(=O)NC2CCCC2)CCC(=O)N1C1CCCC1 (stereo not drawn)
 : -0.75	-2.2
CC1=C(C)CC2C(=O)N(c3ccc4c(c3)OCO4)C(=O)C2C1 (stereo not drawn)
 : -1.6	.
O=C(NC1CCN(S(=O)(=O)c2cc(C(F)(F)F)cc(C(F)(F)F)c2)CC1)C1CCCCC1
 : -3.3	.
Cn1c(=O)c(-c2nnc(NC(=O)c3ccco3)o2)nc2ccccc21
 : .	0.55
CCC(C)NC(=O)CSc1ccsc1[N+](=O)[O-] (stereo not drawn)
 : -0.54	0.49
C=CCN1CCN(C2CCNCC2)C(=O)C1=O
 : .	2.2
O=C(CCCn1c(=O)c2cccn2c2ccccc21)NCCCN1CCOCC1
 : .	1.9
c1ccc(CN2CCc3nc(Nc4ccc5c(c4)OCCO5)ncc3C2)nc1
 : .	1.9
CCN1CCN(c2ncnc3sc(C(=O)N4CCCC4)c(C)c23)CC1
 : .	0.86
CC(=O)Nc1ncc2c(n1)CC(c1ccco1)CC2=O (stereo not drawn)
 : 3	-0.17
COCC(C)NC(=O)C1=CC(c2cccs2)=NS(=O)(=O)N1C (stereo not drawn)
 : -1.6	1.4

Next entries follow:
Values run as follows: CDC25B-CDK2 inh	HIV TAR-Tat
Nc1c(C(=O)Nc2ccc(F)cc2)nnn1-c1cccc(C(F)(F)F)c1
 : -0.87	.
CC(C)(C)C1CCc2c(sc3nc(CCC(=O)N4CCCC4)[nH]c(=O)c23)C1 (stereo not drawn)
 : .	0.35
Cc1c(N2CCN(S(=O)(=O)c3ccc(C(C)C)cc3)CC2)c(=O)n(C)c(=O)n1C
 : .	0.92
CCCCOc1ccc(C2CC(=O)Nc3nc(SC)[nH]c(=O)c32)cc1 (stereo not drawn)
 : 1.4	1.6
Cc1cc(C)n(CCc2noc(-c3ccccc3)n2)n1
 : -1.1	.
CCC(Sc1nncn2c1cc1occc12)C(=O)Nc1cc(Cl)ccc1C (stereo not drawn)
 : .	1.6
Cc1nc2ccc(S(=O)(=O)NC(CC(C)C)C(=O)NCc3cccs3)cc2s1 (stereo not drawn)
 : -0.93	0.86
O=C(Nc1ccc(F)cc1)C1(c2cccs2)CCOCC1
 : .	1.9
CCN(CC)CCNc1nc2c([nH]1)c(=O)[nH]c(=O)n2C
 : 1.9	0.98
Cn1cc(S(=O)(=O)N2CCc3ccccc32)cc1C(=O)N1CCOCC1
 : -0.8	-0.02
COc1ccc(Cl)cc1N1C(=O)CC(NC(C)(C)C)C1=O (stereo not drawn)
 : -1.9	-0.69

Compounds were not picked by outcome, and some 0.97% of all compounds hit somewhere here.
